c-Myc SMM: binders of human c-Myc; hit rate 1.5% among 17,000; small molecule microarray, His-c-Myc binding, anti-His fluorescence; AID 624141; calls only;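 active = spot fluorescence over background with P-value below 7% in all four replicate spots, showing protein binding; compounds were printed on slides so no solution concentration is given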;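 also: score is binary with 100 for all four spots passing and 0 otherwise; about 2 pmol printed per array spot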
ID4 SMM: binders of human ID4 protein; P47928; small molecule microarray, Flag-ID4 binding, fluorescence F/B; calls only; hit rate 1.2% among 31,000; AID 624137;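 active = spot signal over background at p below 0.07 in all four prints; compounds were printed on slides so no solution concentration is given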;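 also: a binder raises fluorescence above local background on the spot; about 2 pmol printed per array spot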
Target sequence (P47928 whole entry, looked up): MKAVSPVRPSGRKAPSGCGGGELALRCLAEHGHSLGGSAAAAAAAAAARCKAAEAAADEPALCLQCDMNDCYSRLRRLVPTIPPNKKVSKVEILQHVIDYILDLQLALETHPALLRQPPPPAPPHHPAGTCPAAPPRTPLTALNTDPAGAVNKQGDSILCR
mut p53 SMM: binders of human mutant p53; small molecule microarray binding, anti-GST fluorescence; calls only; hit rate 0.4% among 17,000; AID 624136;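 active = compounds whose four printed spots each glow above background more than chance allows, each with a p-value under 7%; compounds were printed on slides so no solution concentration is given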;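 also: about 2 pmol printed per array spot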
STAT3 SMM: binds human STAT3 on microarray; P40763; Small molecule microarray, His-STAT3 binding, anti-His fluorescence; calls only; hit rate 0.2% among 17,000; AID 624138;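 active = compounds whose four printed spots each show fluorescence over background unusually high for their array block, chance value under 7%; compounds were printed on slides so no solution concentration is given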;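 also: about 2 pmol printed per array spot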
Target sequence (P40763 whole entry, looked up): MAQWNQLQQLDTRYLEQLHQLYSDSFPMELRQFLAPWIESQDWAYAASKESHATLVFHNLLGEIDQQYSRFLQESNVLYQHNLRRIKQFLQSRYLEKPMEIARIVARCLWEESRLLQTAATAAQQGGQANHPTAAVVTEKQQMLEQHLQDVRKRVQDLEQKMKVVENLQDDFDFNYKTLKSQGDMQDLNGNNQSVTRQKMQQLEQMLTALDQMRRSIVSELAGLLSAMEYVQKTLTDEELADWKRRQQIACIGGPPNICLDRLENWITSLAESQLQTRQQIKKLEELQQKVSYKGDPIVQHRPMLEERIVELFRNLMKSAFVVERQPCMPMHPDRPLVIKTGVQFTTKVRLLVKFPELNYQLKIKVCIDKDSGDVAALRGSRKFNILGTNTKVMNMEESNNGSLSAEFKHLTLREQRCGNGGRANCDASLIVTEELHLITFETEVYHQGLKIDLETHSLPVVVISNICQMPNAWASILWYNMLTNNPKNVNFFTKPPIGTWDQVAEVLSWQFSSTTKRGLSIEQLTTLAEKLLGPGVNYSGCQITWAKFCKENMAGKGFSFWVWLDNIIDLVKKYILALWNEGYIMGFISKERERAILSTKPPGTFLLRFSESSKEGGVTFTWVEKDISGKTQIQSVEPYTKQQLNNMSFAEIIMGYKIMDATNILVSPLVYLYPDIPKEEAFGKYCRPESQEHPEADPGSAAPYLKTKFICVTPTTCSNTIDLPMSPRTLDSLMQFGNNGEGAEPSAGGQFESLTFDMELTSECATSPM
Calls only; i = inactive; nt = no result given; + = active, no number.

SMILES	c-Myc SMM	ID4 SMM	mut p53 SMM	STAT3 SMM
Cc1noc(C)c1NC(=O)Nc1cccc2c1O[C@@H](CN(C)Cc1ccc(C(=O)O)cc1)[C@@H](C)CN([C@H](C)CO)C2=O	i	i	i	i
C[C@H](CO)N1C[C@H](C)[C@H](CN(C)C(=O)NC2CCCCC2)Oc2ccc(N(C)C)cc2C1=O	i	i	i	i
C[C@H]1CN([C@@H](C)CO)C(=O)Cc2cc(NC(=O)Nc3ccccc3)ccc2O[C@H]1CN(C)Cc1ccncc1	i	i	i	i
C[C@H](CO)N1C[C@H](C)[C@H](CN(C)C(=O)Nc2ccc3c(c2)OCO3)Oc2ccc(NS(=O)(=O)c3cn(C)cn3)cc2C1=O	i	i	i	i
N#Cc1c(NC(=O)CSc2ncn(-c3ccccc3)n2)sc2c1CCCC2	i	i	i	i
COc1ccc(CN(C)C[C@H]2Oc3ccc(NC(=O)Nc4ccc5c(c4)OCO5)cc3C(=O)N([C@H](C)CO)C[C@@H]2C)cc1	i	i	i	i
COc1cccc(NC(=O)CC2C(=O)NC3CCCCC3N2C(=O)c2ccccc2)c1 (configuration not stated)	i	+	i	i
CCCCC[C@H](O)/C=C/[C@@H]1[C@H]2C/C(=C/CCCC(=O)O)C[C@H]2C[C@H]1O	i	i	i	i
CC(C)NC(=O)N(C)C[C@H]1OCCCC[C@@H](C)Oc2ccc(NC(=O)Nc3ccc(C(F)(F)F)cc3)cc2C(=O)N([C@@H](C)CO)C[C@H]1C	+	i	i	i
COc1c(C)c2c(c(O)c1C/C=C(/C)CCC(=O)O)C(=O)OC2	i	i	i	i
C[C@@H]1CN([C@H](C)CO)C(=O)c2cc(NC(=O)CCCN(C)C)ccc2O[C@@H](C)CCCCO[C@H]1CN(C)S(=O)(=O)c1ccccc1	i	i	i	i
CN(C)C(=O)CSc1nc2ccccc2c(=O)[nH]1	i	i	i	i
Cc1noc(C)c1NC(=O)N(C)C[C@H]1Oc2ccc(NC(=O)Nc3ccc(F)cc3)cc2CC(=O)N([C@H](C)CO)C[C@H]1C	i	+	i	i
C[C@@H]1CN([C@H](C)CO)C(=O)Cc2cc(N(C)C)ccc2O[C@@H]1CN(C)Cc1ccccc1	i	i	i	i
O=C(O)Cc1cc(I)c(Oc2ccc(O)c(I)c2)c(I)c1	i	i	i	i
C[C@H]1CCCCO[C@@H](CN(C)Cc2ccccc2)[C@@H](C)CN([C@@H](C)CO)C(=O)c2cc(NS(=O)(=O)c3cccs3)ccc2O1	i	i	i	i
C[C@H](CO)N1C[C@H](C)[C@H](CN(C)S(=O)(=O)c2ccc(Cl)cc2)Oc2c(NC(=O)NC3CCCCC3)cccc2C1=O	i	i	i	i
COc1ccc(/C=C/C(=O)O[C@H]2[C@@H]3C=CO[C@@H](O[C@@H]4O[C@H](CO)[C@@H](O)[C@H](O)[C@H]4O)[C@@H]3[C@@]3(CO)O[C@@H]23)cc1O	i	i	i	i
CCCc1c(-c2ccc(O)cc2)nn(-c2ccc(O)cc2)c1-c1ccc(O)cc1	i	i	i	i
O=C(CSc1nccc(=O)[nH]1)Nc1cccc(C(F)(F)F)c1	i	i	i	i
C[C@@H]1CN([C@@H](C)CO)C(=O)c2cc(NC(=O)Nc3ccc4c(c3)OCO4)ccc2O[C@H]1CN(C)Cc1ccc(C(F)(F)F)cc1	i	i	i	i
C[C@H](CO)N1C[C@H](C)[C@H](CN(C)C(=O)Nc2cccc3ccccc23)OCCCC[C@H](C)Oc2ccc(NC(=O)c3ccncc3)cc2C1=O	i	i	i	i
C[C@H]1CN([C@@H](C)CO)C(=O)Cc2cc(NC(=O)c3ccncc3)ccc2O[C@H]1CN(C)C(=O)Nc1ccccc1	i	i	i	i
C[C@@H]1CN([C@@H](C)CO)C(=O)c2cc(NC(=O)Cn3cnnn3)ccc2O[C@@H]1CN(C)Cc1ccc(Cl)c(Cl)c1	i	i	i	i
COc1ccc(OC)c(S(=O)(=O)Nc2ccc(C(N)=O)cc2)c1	i	i	i	i
O=C(COc1ccc(C(=O)Nc2ccccc2Cl)cc1)Nc1cc(Cl)cc(Cl)c1	i	i	i	i
O=C(O)/C=C1\CCCc2ccccc2C1O (configuration not stated)	i	nt	i	i
COc1cc(C(C)/C=C(/C)CC(=O)O)oc(=O)c1C (configuration not stated)	i	i	i	i
Cc1ccc(OCC(=O)Nc2nc(C)cc(C)n2)cc1	i	i	i	i
COc1ccc(NC(=O)N(C)C[C@@H]2Oc3ccc(NS(C)(=O)=O)cc3C(=O)N([C@@H](C)CO)C[C@@H]2C)cc1	i	nt	i	i
CNC[C@H]1Oc2ccc(NC(=O)NC3CCCCC3)cc2C(=O)N([C@H](C)CO)C[C@@H]1C	i	i	i	i
COc1ccccc1NC(=O)CSc1nc(-c2ccc(C)cc2)nc2c1COC(C)(C)C2	i	i	i	i
C[C@H](CO)N1C[C@H](C)[C@H](CN(C)Cc2ccc(C(F)(F)F)cc2)Oc2c(NC(=O)Nc3ccc(F)cc3)cccc2C1=O	i	i	i	i
Cc1noc(C)c1NC(=O)N(C)C[C@H]1OCCCC[C@@H](C)Oc2ccc(NS(=O)(=O)c3c(C)noc3C)cc2C(=O)N([C@H](C)CO)C[C@@H]1C	i	nt	i	i
C[C@H](CO)N1C[C@H](C)[C@H](CN(C)S(=O)(=O)c2cccs2)Oc2c(NS(C)(=O)=O)cccc2C1=O	i	i	i	i
O=C(O)CCCc1c[nH]c2ccccc12	i	+	i	i
COc1ccccc1NC(=O)Cn1cnc2scc(-c3cccc([N+](=O)[O-])c3)c2c1=O	i	i	i	i
Cc1ccccc1NC(=O)CSC1CC(=O)N(c2ccccc2)C1=O (configuration not stated)	i	i	i	i
C[C@@H]1CN([C@H](C)CO)C(=O)c2cccc(NC(=O)C3CCCCC3)c2O[C@@H]1CN(C)C(=O)Nc1ccc2c(c1)OCO2	i	nt	i	i
Cc1noc(C)c1S(=O)(=O)N(C)C[C@@H]1Oc2ccc(NS(=O)(=O)c3cccs3)cc2CC(=O)N([C@@H](C)CO)C[C@@H]1C	i	i	i	i
CNC[C@H]1Oc2c(NS(=O)(=O)c3ccc(OC)cc3)cccc2C(=O)N([C@H](C)CO)C[C@@H]1C	i	i	i	i
NC(CC(=O)Nc1ccc(Cl)cc1)C(=O)O (configuration not stated)	i	i	i	i
CCCCCCCCCCC/C=C\C/C=C\CCCC(=O)O	i	nt	i	i
C[C@@H]1CN([C@@H](C)CO)C(=O)c2cccc(NC(=O)Nc3ccc(F)cc3)c2O[C@@H]1CN(C)Cc1ccc(C(=O)O)cc1	i	i	i	i
C[C@@H]1CN([C@@H](C)CO)C(=O)Cc2cc(NC(=O)CCN3CCOCC3)ccc2O[C@@H]1CN(C)C(=O)Nc1cccc2ccccc12	i	+	i	i
C[C@H](CO)N1C[C@H](C)[C@H](CN(C)Cc2ccc(C(F)(F)F)cc2)Oc2ccc(NC(=O)Cc3ccccc3)cc2CC1=O	i	i	i	i
COc1cc(CCC(O)CC(O)CCc2ccc(O)c(OC)c2)ccc1O (configuration not stated)	i	i	i	i
C[C@@H]1CCCCO[C@@H](CN(C)C)[C@H](C)CN([C@@H](C)CO)C(=O)c2cc(NC(=O)CCC(F)(F)F)ccc2O1	i	i	i	i
COc1ccc(S(=O)(=O)Nc2ccc3c(c2)C(=O)N([C@@H](C)CO)C[C@@H](C)[C@H](CN(C)Cc2ccc(C(=O)O)cc2)O3)cc1	i	i	i	i
CC(=O)n1cc([C@@H]2C=C(C(=O)N3CCCCCCC3)O[C@H](OCCCCO)C2)c2ccccc21	i	nt	i	i
COc1ccc(S(=O)(=O)N(C)C[C@H]2Oc3ccc(NC(=O)Nc4ccc5c(c4)OCO5)cc3CC(=O)N([C@H](C)CO)C[C@@H]2C)cc1	i	i	i	i
Cc1noc(C)c1NC(=O)N(C)C[C@H]1Oc2c(NC(=O)c3ccncc3)cccc2C(=O)N([C@H](C)CO)C[C@H]1C	i	i	i	i
O=C(c1c[nH]c2ccccc12)C(O)C(c1ccccc1)N1CCCCC1 (configuration not stated)	i	i	i	i
Cc1noc(C)c1NC(=O)N(C)C[C@@H]1Oc2ccc(NS(=O)(=O)c3cn(C)cn3)cc2C(=O)N([C@@H](C)CO)C[C@@H]1C	i	i	i	i
O=C(CC1C(=O)NCCN1C(=O)c1ccc(F)cc1)OCc1ccccc1 (configuration not stated)	i	i	i	i
C[C@@H]1CN([C@@H](C)CO)C(=O)Cc2cc(N(C)C)ccc2O[C@H]1CN(C)S(=O)(=O)c1cccs1	+	i	i	i
C[C@H]1CN([C@@H](C)CO)C(=O)c2cc(NC(=O)C3CC3)ccc2O[C@@H]1CN(C)C	i	i	i	i
CC(CCC(=O)NCC(=O)O)C1CCC2C3CCC4CC(O)CCC4(C)C3CC(O)C12C (configuration not stated)	i	i	i	i
C[C@@H]1CN([C@H](C)CO)C(=O)Cc2cc(NC(=O)NC3CCCCC3)ccc2O[C@H]1CN(C)C(=O)Nc1ccc(C(F)(F)F)cc1	i	i	i	i
COc1cc(C(=O)OC[C@@]2(O)CO[C@H](OC3C(CO)OC(OC(C)/C=C/C4(O)C(C)CC(O)CC4(C)C)C(O)C3O)[C@@H]2O)cc(OC)c1O (some centres not stated)	i	i	i	i

(next part)
SMILES	c-Myc SMM	ID4 SMM	mut p53 SMM	STAT3 SMM
CCO[C@@H]1OC(C(=O)N2CCN(C)CC2)=C[C@H](c2ccc(C(F)(F)F)cc2)[C@H]1CCCO	i	i	i	i
C[C@@H]1CCCCO[C@@H](CN(C)Cc2ccncc2)[C@H](C)CN([C@@H](C)CO)C(=O)c2cc(NC(=O)Nc3ccccc3)ccc2O1	i	i	i	i
COc1ccc(S(=O)(=O)N(C)C[C@H]2Oc3ccc(NC(=O)Nc4ccc5c(c4)OCO5)cc3CC(=O)N([C@H](C)CO)C[C@H]2C)cc1	i	i	i	i
C[C@@H]1CCCCO[C@H](CN(C)C(=O)Nc2ccc(F)cc2)[C@@H](C)CN([C@@H](C)CO)C(=O)c2cc(NS(=O)(=O)c3ccccc3)ccc2O1	i	i	i	i
C[C@H]1CN([C@@H](C)CO)C(=O)c2cc(NC(=O)c3ccncc3)ccc2O[C@H]1CN(C)Cc1ccc(-c2ccccc2)cc1	i	nt	i	i
Cc1noc(C)c1NC(=O)N(C)C[C@@H]1Oc2ccc(NC(=O)Nc3ccc(F)cc3)cc2C(=O)N([C@@H](C)CO)C[C@H]1C	i	i	i	i
Cc1c(NC(=O)CN(c2ccc(Br)cc2)S(C)(=O)=O)cccc1[N+](=O)[O-]	i	i	i	i
C[C@H]1CN([C@@H](C)CO)C(=O)c2cccc(NC(=O)C3CCOCC3)c2O[C@H]1CN(C)C(=O)Nc1ccccc1	i	i	i	i
CCOc1ccc(Nc2ncnc3c2ncn3-c2ccc(OCC)cc2)cc1	i	i	i	i
Cc1ccc(N(C(C)C(=O)Nc2cc(C)cc(C)c2)S(C)(=O)=O)cc1 (configuration not stated)	i	i	i	i
OCc1nnn(-c2ccc(Br)cc2)c1CO	i	i	i	i
NC(=O)NCC#Cc1ccc2c(c1)[C@]1(C(=O)N2)[C@H](c2ccc(OCCO)cc2)N2[C@H](c3ccccc3)[C@H](c3ccccc3)OC(=O)[C@H]2[C@@H]1C(=O)Nc1nc2ccccc2s1	i	i	i	i
C[C@@H]1CN([C@@H](C)CO)C(=O)CCCn2cc(nn2)CO[C@H]1CN(C)S(=O)(=O)c1ccccc1	i	i	i	i
C=C(C)[C@@H]1CC[C@]2(C(=O)O)CC[C@]3(C)[C@H](CCC4[C@@]5(C)CCC(=O)C(C)(C)C5C(O)C[C@]43C)C12 (some centres not stated)	i	i	i	i
COc1ccc(CN(C)C[C@H]2Oc3c(NS(C)(=O)=O)cccc3C(=O)N([C@H](C)CO)C[C@@H]2C)cc1	i	i	i	i
C[C@H]1CN([C@@H](C)CO)C(=O)c2cc(NS(C)(=O)=O)ccc2O[C@H]1CN(C)C	i	i	i	i
COc1ccc(S(=O)(=O)N(C)C[C@@H]2Oc3ncc(-c4ccc(F)cc4)cc3C(=O)N([C@H](C)CO)C[C@@H]2C)cc1	i	i	i	i

Ordered by count of non-hydrogen atoms (lowest first): some entries from above.
SMILES	c-Myc SMM	ID4 SMM	mut p53 SMM	STAT3 SMM
COc1ccc(OC)c(S(=O)(=O)Nc2ccc(C(N)=O)cc2)c1	i	i	i	i
CCO[C@@H]1OC(C(=O)N2CCN(C)CC2)=C[C@H](c2ccc(C(F)(F)F)cc2)[C@H]1CCCO	i	i	i	i
C[C@H]1CN([C@@H](C)CO)C(=O)c2cc(NC(=O)c3ccncc3)ccc2O[C@H]1CN(C)Cc1ccc(-c2ccccc2)cc1	i	nt	i	i
C[C@@H]1CCCCO[C@H](CN(C)C(=O)Nc2ccc(F)cc2)[C@@H](C)CN([C@@H](C)CO)C(=O)c2cc(NS(=O)(=O)c3ccccc3)ccc2O1	i	i	i	i

Gathered by group: the compounds so far containing an aryl thioether with sulfur outside any ring
SMILES	c-Myc SMM	ID4 SMM	mut p53 SMM	STAT3 SMM
N#Cc1c(NC(=O)CSc2ncn(-c3ccccc3)n2)sc2c1CCCC2	i	i	i	i
CN(C)C(=O)CSc1nc2ccccc2c(=O)[nH]1	i	i	i	i
O=C(CSc1nccc(=O)[nH]1)Nc1cccc(C(F)(F)F)c1	i	i	i	i
COc1ccccc1NC(=O)CSc1nc(-c2ccc(C)cc2)nc2c1COC(C)(C)C2	i	i	i	i
